Source: PubChem BioAssay
CtBP-E1A inh – qHTS Assay for Inhibitors of the CtBP/E1A Interaction; CtBP / adenovirus E1A interaction (AlphaScreen); AlphaScreen GST-E1A/His-CtBP binding, 1536-well; active compounds read low; control for the full effect not named in the record; activity change, % (no concentration beside the values); 340,000 compounds, 0.49% hits; AID 651724, 2012; in the data active means activity change below about -65%; inconclusive means about -30% to -65%; inactive means above about -30%; note: % is set by controls: 0 for no effect and ±100 for the full control effect
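Steps: dispense buffer (Tris pH 8.0, NaCl 300 mM, TCEP 1 mM, BSA, Tween 20); add 5X protein mix (GST-E1A, His-CtBP, 125 nM each); pin 23 nL compound; 2 h at 37 °C, dark; add 5X beads (50 ug/mL); 1 h; read.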
D2 ag – Beta-Arrestin HTS for Positive Allosteric Modulators of the Human D2 Dopamine Receptor: Agonists. D(2) dopamine receptor (Homo sapiens), P14416. DiscoveRx PathHunter D2 beta-arrestin, luminescence, 90 min; 100% = 57 uM dopamine signal. 360,000 compounds, 0.084% hits. activation, % (no concentration beside the values). AID 624465, 2012; in the data active = activation above about 40%; inconclusive = about 15% to 40%; inactive = below about 15%; note: compound concentration not given in the record; the text of the record calls up to 30% inactive
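DiscoveRx PathHunter D2 beta-arrestin cells (2,100/well) attached overnight, then compound-stimulated 90 min at 37 C in HBSS/10 mM HEPES/0.1% Tween-20 buffer; beta-galactosidase complementation read by luminescence after 1 h at ambient temperature. Dopamine 57 uM final (EC100) as control.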
Six1-Eya2 blk – qHTS Assay for Inhibitors of the Six1/Eya2 Interaction | Homeobox protein SIX1 (Homo sapiens) + Protein phosphatase EYA2 (Homo sapiens), … | AID 651725, 2012 | activity change, % (test concentration not listed) | 360,000 compounds, 0.56% hits | AlphaScreen GST-Six1/His-Eya2 binding, biochemical; active compounds read low; control for the full effect not named in the record; in the data active = activity change below about -65%; inconclusive = about -30% to -65%; inactive = above about -30%; note: % is set by controls: 0 for no effect and ±100 for the full control effect
Target sequence (O00167 whole entry, looked up): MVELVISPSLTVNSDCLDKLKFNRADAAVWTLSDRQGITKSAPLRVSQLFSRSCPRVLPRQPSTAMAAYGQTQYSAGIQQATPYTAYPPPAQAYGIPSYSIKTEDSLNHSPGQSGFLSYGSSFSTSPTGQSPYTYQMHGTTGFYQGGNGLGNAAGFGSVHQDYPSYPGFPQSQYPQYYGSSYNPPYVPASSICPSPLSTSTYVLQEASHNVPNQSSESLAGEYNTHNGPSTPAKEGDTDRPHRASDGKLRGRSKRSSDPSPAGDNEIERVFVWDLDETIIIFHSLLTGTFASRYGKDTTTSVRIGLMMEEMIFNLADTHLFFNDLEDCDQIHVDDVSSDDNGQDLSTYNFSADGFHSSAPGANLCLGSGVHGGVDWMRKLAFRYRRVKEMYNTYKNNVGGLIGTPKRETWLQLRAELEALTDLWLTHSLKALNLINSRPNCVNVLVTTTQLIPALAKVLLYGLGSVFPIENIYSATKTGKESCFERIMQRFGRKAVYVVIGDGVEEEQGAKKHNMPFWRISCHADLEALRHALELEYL
Target sequence (Q15475 whole entry, looked up): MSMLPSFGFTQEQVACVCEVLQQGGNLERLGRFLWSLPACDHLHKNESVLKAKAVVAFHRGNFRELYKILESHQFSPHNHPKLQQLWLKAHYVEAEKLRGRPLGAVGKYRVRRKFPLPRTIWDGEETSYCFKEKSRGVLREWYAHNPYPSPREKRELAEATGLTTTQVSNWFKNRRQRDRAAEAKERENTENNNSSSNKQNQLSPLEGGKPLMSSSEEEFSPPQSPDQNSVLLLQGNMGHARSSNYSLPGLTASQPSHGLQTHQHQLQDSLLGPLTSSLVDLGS
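AlphaScreen luminescence read after one hour at 37 °C in darkness. Pin-transferred compounds met GST-Six1 and His-Eya2 protein (5X stock 250 nM/500 nM) plus glutathione donor and Ni-chelate acceptor beads (5X, 50 ug/mL).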
PINK1 expr mod – A Quantitative High throughput Screen to Identify Chemical Modulators of PINK1 Expression. PINK1 immunofluorescence, high-content cytometry, 24 h. Potency, µM (top dose mostly 76.6 µM), without a hit: at the highest dose activation (PINK1 increase), usual class: activators. 410,000 compounds, 0.2% hits; active = well fitted activation curve with a large enough effect; inconclusive = small, poorly fitted or top-dose-only effect; inactive = flat fitted curve, though single readings scatter; cell line not stated here;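 note: potency is the fitted concentration of half-maximal effect; % of control where 0% means no effect; nearly all actives have a fitted effect of over 65% in size; a mitochondrial uncoupler was the plate control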
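Readout is PINK1 immunofluorescence, quantified alongside mitochondrial, cell and nuclear markers by laser-scanning microplate cytometry. Cells from a stable line were exposed to compound titrations (5 concentrations) for 24 hours, with CCCP controls.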
TRPML1 agonist – qHTS for Agonists of the Human Mucolipin Transient Receptor Potential 1 (TRPML1) | activation, % (test concentration not listed) | AID 624414, 2012 | 410,000 compounds, 0.12% hits | Mucolipin-1 (Homo sapiens), Q9GZU1 | TRPML1-expressing cells, Ca2+ dye fluorescence, FDSS; host cell line not named in the record; reference of the full effect not given here; in the data active = activation above about 50%; inconclusive = about 30% to 50%; inactive = below about 30%; note: 0% is about no effect; the text of the record puts the active cut at 80%
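Tetracycline-induced TRPML1-DL cells are seeded and incubated overnight before loading with a no-wash Ca2+ dye and quencher. Agonist activity is taken from the 110 s fluorescence read following compound pin-transfer on an FDSS, before EC80 54-4 challenge.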
TRPML1 inh – qHTS for Inhibitors of the Human Mucolipin Transient Receptor Potential 1 (TRPML1) | Mucolipin-1 (Homo sapiens), Q9GZU1 | TRPML1-inducible cells, Ca2+ dye fluorescence, FDSS; active compounds read low; inhibition of EC80 agonist-evoked calcium signal | 390,000 compounds, 0.02% hits | activity change, negative = inhibition, % (concentration not given with the values); in the data active means activity change below about -50%; inconclusive means about -30% to -50%; inactive means above about -30%;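 note: stimulus is agonist 54-4 at its EC80 concentration; % is set by controls: 0 for no effect and ±100 for the full control effect; the text of the record puts the active cut at -80%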
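TRPML1-DL cells, Tet-induced overnight (~16 h, 37 °C) at 1,500 cells/well, were loaded with Ca8 no-wash dye plus quencher for 45-90 min at room temperature. Compounds were pinned during FDSS kinetic reading; agonist 54-4 at EC80 (4 uM final) then added.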
* marks the source's active call; other numbers are inactive results; ? = inconclusive; . = not tested or not shown; [ ] = remark or other dose.

SMILES	CtBP-E1A inh	D2 ag	Six1-Eya2 blk	PINK1 expr mod	TRPML1 agonist	TRPML1 inh
COc1cccc(C(=O)NCC(c2cccnc2)N2CCN(c3ccccc3OC)CC2)c1 (stereo not given)	-6	-3.3	-6	2.1%	-0.8	2
CCOc1ccc(S(=O)(=O)NCc2ccc3c(c2)OCO3)cc1	-5	-4.7	-1	1.5%	0.0	0
Cc1cc(C(=O)CN2C(=O)C(=O)N(Cc3ccccc3)C2=O)c(C)n1CC1COc2ccccc2O1 (stereo not given)	-11	1.0	-6	-1.6%	-0.1	-10
NC(=O)N/N=C/c1c(F)c(F)c(F)c(F)c1F	-15	0.0	10	-0.5%	0.0	-5
NC(CCc1ccccc1)c1csc(Nc2ccc(C(F)(F)F)cn2)n1 (stereo not given)	-13	-1.7	-9	-1.6%	-0.2	22
CCCS(=O)(=O)N1CCC(C(=O)NCc2ccc3c(c2)OCO3)CC1	5	-19	1	0.1%	1.7	-3
O=c1[nH]c(=O)n(-c2ccccc2)c2c1C(C(F)(F)F)(C(F)(F)F)N=C(CCC1CCCCC1)N2	-11	-0.9	11	16%	10	0
COc1cc2ccccc2cc1C(=O)NCc1ccncc1	0	-1.9	6	-0.6%	-0.3	15
CCCCOc1cccc(C(=O)N(Cc2ccc(Cl)cc2)C2CCS(=O)(=O)C2)c1 (stereo not given)	.	.	.	-2.3%	2.6	52
COC(=O)c1cc2ccsc2n1CC(=O)N(C)C1CCCCC1	2	-8.8	4	-0.7%	1.4	6
CC(C)(C)OC(=O)N1CCC(c2cc(=O)n3[nH]cc(C(=O)Nc4ccc(F)c(Cl)c4)c3n2)CC1	.	1.6	6	1.4%	0.9	-14
CCOC(=O)C(=C1Nc2ccccc2N1)n1c(-c2cnccn2)nc2ccccc21	-8	.	-21	1.4%	-0.2	.
O=C(C1CCC(=O)N1Cc1ccccc1Cl)N1CCN(c2ccc(F)cc2)CC1 (stereo not given)	2	-4.7	3	-0.6%	0.1	8
Cc1ccc(C(=O)N2CCN(c3ccc4c(c3)C3CC4CCN3C(=O)OCc3ccccc3)CC2)cc1 (stereo not given)	-27	-0.7	?	2.5%	-0.4	.
O=c1oc2cc(OCCO)ccc2c2c1CCCC2	1	-3.0	5	-1.0%	0.6	-4
O=C(Cn1cnc2ccccc2c1=O)Nc1cccc(-c2nnc3n2CCCCC3)c1	8	-2.0	11	-1.5%	1.7	8
Cc1c(CN(C)C(=O)c2sc3cc(Cl)ccc3c2Cl)cnn1C	-1	-4.2	-4	-1.5%	1.5	-10
COc1ccc2c(c1)N(C[C@H](C)CN(C)C)c1ccccc1S2	?	-2.1	-10	-0.8%	2.3	9
COC(=O)CN1C(=O)NC2(CCCc3ccccc32)C1=O (stereo not given)	-2	-0.9	3	0.0%	.	.
Cc1cccc(NC(=O)c2oc3c(c2C)-c2[nH]ncc2CC3)c1C	.	.	.	3.0%	-0.4	-3
CC(C)c1ccc(-c2cc(C(=O)N3N=C(C(F)F)CC3(O)C(F)F)c3ccccc3n2)cc1 (stereo not given)	0	-6.4	-6	?	1.6	-2
O=c1[nH]cnc(O)c1C(c1ccc(Br)cc1)c1c(O)nc[nH]c1=O	.	-4.8	-3	-0.6%	0.1	-13
Cc1cc(C)c2sc(NC(=O)C3CC3)nc2c1	1	1.5	2	1.4%	1.2	12
Cc1cccn2c(=O)c(C(=O)NCCc3ccccc3)c(O)nc12	.	.	.	0.5%	-0.6	5
CC(=O)c1c(C)nc(-c2ccc(Cl)cc2)nc1NC(=O)C(C)C	3	-4.4	6	-0.7%	1.4	14
O=C(Nc1nnc2n1CCS2)c1cc(C(F)(F)F)cc(C(F)(F)F)c1	.	.	.	-4.8%	-0.1	-1
CSC1=NC(C)(C)C=C(/C=C/c2c(Cl)cccc2Cl)N1	17	-5.0	2	-0.9%	3.3	-1
O=C(NCCCNC(=O)c1ccco1)c1ccco1	7	-1.2	2	0.7%	0.0	23
CN(C)S(=O)(=O)c1ccc(NS(=O)(=O)/C=C/c2ccccc2)cc1	-6	1.1	0	-3.3%	3.8	10
CCOC(=O)C1=C(C)N=C2SCCC(=O)N2[C@@H]1c1cccs1	-10	4.4	4	-1.8%	0.8	30
CCCCOCCCNC(=O)C[C@@H]1C[C@@]2(C(=O)OCC)CCCC=C2N(Cc2ccco2)C1=O	0	.	1	0.5%	-1.3	.
CCCS(=O)(=O)c1ncc(Cl)c(C(=O)Nc2ccc(S(=O)(=O)Nc3ncccn3)cc2)n1	-77*	3.3	-83*	-1.0%	-0.8	-4
COc1cc(-c2nnc(COC(=O)C3c4ccccc4Oc4ccccc43)o2)cc(OC)c1OC	-1	-1.0	-19	-0.9%	1.2	1
Cc1cc(C(=O)COC(=O)Cc2n[nH]c(=O)c3ccccc23)c(C)n1-c1cccc(C(F)(F)F)c1	2	-1.6	-17	9.1%	1.8	21
CCOc1ccc2nc3sc(C(=O)N4CCN(C)CC4)c(N)c3cc2c1	-20	-3.8	-21	-1.3%	6.1	-5
CC(=O)Nc1ccc(NC(=O)c2cc(S(=O)(=O)N3CCCCC3)ccc2N2CCOCC2)cc1	-1	-2.2	-5	-0.7%	1.2	6
CNc1ccc2ncc(-c3ccccc3NC(C)=O)n2n1	-1	-4.7	0	0.9%	-0.3	6
COc1ccccc1C(=O)NCCC(=O)N1CCN(c2ccccc2O)CC1	-18	-2.1	7	2.0%	-0.6	-8
COc1ccc(S(=O)(=O)N2CCOCC2)cc1OC	5	-4.5	-2	4.5%	-0.6	18
CC(=O)N1CCN(C(=O)c2cccc(S(=O)(=O)N3CCN(c4ccc(F)cc4)CC3)c2)CC1	6	-0.4	0	0.6%	0.1	17
CC(C)CNC(=O)c1cc([N+](=O)[O-])ccc1N1CCOCC1	-7	-4.6	12	-0.4%	-0.1	-5
COc1cc2c(-c3ccccc3C)nc3c(c(C)nn3-c3ccccc3)c2cc1OC	.	.	.	4.1%	-0.9	-11
O=c1cc(CO)oc2ccccc12	4	0.2	0	1.3%	-0.8	-6
O=C(CCS(=O)(=O)Cc1ccccc1)NCc1ccco1	-6	-0.9	1	.	-0.3	-4
Cn1cnnc1SCc1ccccc1[N+](=O)[O-]	7	-3.1	6	1.2%	0.5	8
CN1CCN(C(=O)c2ccc(CS(=O)(=O)c3c(Cl)cccc3Cl)o2)CC1	0	0.1	22	1.3%	-0.7	-11
CCc1sc(-c2ccccc2)nc1C(=O)OC	.	-3.8	13	1.7%	0.0	9
CC1=NN(C(=O)CSCc2ccccc2)C(O)(c2ccc(F)cc2)C1 (stereo not given)	-5	5.0	-7	-1.5%	2.5	31

Structures shown so far containing a nitro group on carbon, in the order listed:
SMILES	CtBP-E1A inh	D2 ag	Six1-Eya2 blk	PINK1 expr mod	TRPML1 agonist	TRPML1 inh
CC(C)CNC(=O)c1cc([N+](=O)[O-])ccc1N1CCOCC1	-7	-4.6	12	-0.4%	-0.1	-5
Cn1cnnc1SCc1ccccc1[N+](=O)[O-]	7	-3.1	6	1.2%	0.5	8

Sorted by value in PINK1 expr mod (ascending): 4 of the compounds above.
smiles	PINK1 expr mod
CCc1sc(-c2ccccc2)nc1C(=O)OC	1.7%
COc1ccccc1C(=O)NCCC(=O)N1CCN(c2ccccc2O)CC1	2.0%
COc1cc2c(-c3ccccc3C)nc3c(c(C)nn3-c3ccccc3)c2cc1OC	4.1%
COc1ccc(S(=O)(=O)N2CCOCC2)cc1OC	4.5%

The list goes on.
SMILES	CtBP-E1A inh	D2 ag	Six1-Eya2 blk	PINK1 expr mod	TRPML1 agonist	TRPML1 inh
CCC(OC(=O)c1nsc(Cl)c1Cl)C(=O)NCCOC (stereo not given)	10	-0.4	4	0.7%	-0.5	12
Nc1nc2ccccc2n1/N=C/c1ccc2c(c1)OCO2	-15	0.2	-20	-0.6%	2.8	19
C[C@H](CO)N1C[C@H](C)[C@@H](CN(C)Cc2ccc(Cl)c(Cl)c2)Oc2c(NC(=O)Cc3ccccc3)cccc2C1=O	-19	12	-11	6.9%	0.1	32
COc1ccc(-c2nc3ccc(C(=O)NCCCN4CCOCC4)cc3nc2-c2ccc(OC)cc2)cc1	.	-0.7	8	-0.5%	1.0	-14
COc1cc(C=NNC(=O)c2ccccc2-n2cccc2)ccc1O	?	4.9	-7	4.1%	0.3	-11
Cc1cc(-c2ccccc2)c(C#N)c(SCC(N)=O)n1	6	-4.8	-17	-1.4%	1.1	6
O=S(=O)(c1ccc2c(c1)OCCO2)N1CCC(c2nc3ccc(Cl)cc3[nH]2)CC1	?	0.1	?	-4.1%[38.3 µM]	3.8	1
CCCNc1nc2ccccc2c(=O)[nH]1	1	-2.3	-2	-3.7%	1.0	1
COc1ccc(CCNS(=O)(=O)c2ccc(C(=O)NCc3ccco3)cc2)cc1OC	-3	-0.8	-6	-0.5%[38.3 µM]	-0.4	-13
C/C(=N\n1c(C)nc2ccccc2c1=O)c1ccc(N)cc1	4	-1.3	1	-0.6%	2.0	9
CCC1Nc2ncnc(N3CCN(c4ccccc4)CC3)c2N(Cc2ccc(Cl)cc2)C1=O (stereo not given)	-27	-17	-25	2.9%	-0.1	3
CC1(C)Oc2cc3oc(-c4cc(O)cc(O)c4)cc3cc2CC1O (stereo not given)	-5	-3.0	0	3.4%	.	.
CCOC(=O)/C(=C/c1c2ccccc2cc2ccccc12)NC(=O)c1ccccc1	29	-2.6	17	2.4%	1.6	13
Cc1cccc(N2CCN(C(=O)COc3cccc4c3OC(C)(C)C4)CC2)c1C	0	-4.0	-6	8.3%	5.3	20
Cc1cccc(C(=O)NC(=S)N2CCN(C(=S)NC(=O)c3cccc(C)c3)CC2)c1	0	-1.3	-14	1.2%	0.1	24
CCc1cccc(C)c1NC(=O)Cn1c(=O)n(-c2ccc(C)cc2)c(=O)c2c1cnn2C	.	.	.	0.9%	0.1	2
Fc1ccc(C2=Nn3c(nnc3-c3ccco3)SC2)cc1	?	-1.7	?	0.5%	0.9	-4
CCCCC(c1nc2ccccc2[nH]1)n1c(-c2ccccc2)nc2ccccc21 (stereo not given)	5	-1.8	6	?	-0.7	.
CN(CCCOc1ccccc1Br)Cc1ccccc1	-6	-4.2	0	3.9%	1.8	?
Cc1cc(-c2ccc(Cl)cc2)n2nc(N)nc2n1	-17	-4.1	-30	8.5%	-0.2	-16
